DT40 TDP1 no CPT: qHTS for Inhibitors of human tyrosyl-DNA phosphodiesterase 1 (TDP1): qHTS in cells in absence of CPT; DT40 Tdp1-/- hTDP1 cells, no CPT, ATP luminescence, 48 h; Potency, µM (series often up to 46.2 µM), for inactives: top-dose activity change, negative = growth inhibition, most hits filed as inhibitors; hit rate 15% among 420,000; further: nearly all actives have a fitted effect of over 55% in size
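Compound effects on proliferation are scored in DT40 Tdp1-/-;hTDP1 cells in the absence of CPT. ATP levels (CellTiter-Glo luminescence) are recorded after a ≥48 hr, 37 °C incubation.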
TDP1 inh: inhibitors of human tyrosyl-DNA phosphodiesterase TDP1. hit rate 0.28% among 350,000. Potency, µM (top dose mostly 130 µM), for inactives: at the top dose activity change, negative = inhibition, hits mostly inhibitors. recombinant TDP1, AlphaScreen DNA substrate cleavage; further: nearly all actives have a fitted effect of over 40% in size
Target sequence (Q9NUW8 whole entry, looked up): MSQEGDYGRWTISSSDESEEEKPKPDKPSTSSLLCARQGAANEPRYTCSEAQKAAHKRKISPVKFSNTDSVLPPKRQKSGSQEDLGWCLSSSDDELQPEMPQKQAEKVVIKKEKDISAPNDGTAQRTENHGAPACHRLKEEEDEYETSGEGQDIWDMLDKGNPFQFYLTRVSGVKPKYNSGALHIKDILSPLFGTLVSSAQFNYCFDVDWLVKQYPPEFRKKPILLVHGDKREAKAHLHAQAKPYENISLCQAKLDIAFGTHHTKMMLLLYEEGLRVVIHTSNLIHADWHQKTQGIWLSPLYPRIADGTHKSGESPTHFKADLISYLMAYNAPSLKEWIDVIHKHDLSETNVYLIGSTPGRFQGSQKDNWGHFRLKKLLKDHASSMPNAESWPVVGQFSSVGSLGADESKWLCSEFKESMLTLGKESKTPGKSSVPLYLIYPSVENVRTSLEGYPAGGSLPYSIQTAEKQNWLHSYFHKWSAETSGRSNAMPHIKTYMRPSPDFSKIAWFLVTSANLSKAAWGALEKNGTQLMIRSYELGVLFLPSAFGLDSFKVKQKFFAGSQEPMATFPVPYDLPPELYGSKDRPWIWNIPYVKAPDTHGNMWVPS
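Steps: enzyme plus compound, 15 min RT; add biotin/phosphotyrosine-FITC oligonucleotide (15 nM final), react 5 min; add donor/acceptor beads (10 ug/ml final), 10 min; read AlphaScreen. Tdp1 at 1 nM final.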
Starred values were filed as active, the others as inactive; ? = inconclusive; . = no result given; & = joins results of further samples; [ ] = dose if it differs, or a comment. The call rests on the fitted dose curve; in most records, active means well fitted curve in the direction sought with a large enough effect; inconclusive means small, poorly fitted or top-dose-only effect, or another doubt; inactive means no such curve, though single readings can be large; an effect the other way counts as inactive or inconclusive. On the % scale 0 is the no-effect control and ±100 the full control effect; potency means the concentration at half of the fitted maximal effect. An excerpt; most or all hits stand in other tables.

smiles	DT40 TDP1 no CPT	TDP1 inh
CC(C)Oc1ccc(S(=O)(=O)N2CCCCC2)cc1NC(=O)C1CCC1	?	-9%[0.505 µM]
Cc1snc2sc(C(=O)c3ccc(Br)cc3)c(N)c12	?	2%
CC(C)N(Cc1ccccc1)C(=O)CN1C(=O)NC2(CCCC2)C1=O	5%	0%
O=C(CN1C(=O)C2C3C=CC(C3)C2C1=O)NCC1COc2ccccc2O1 (stereo not given)	2%	2%
COc1cc(C(=O)NCc2ccc(-c3nc4ccccc4s3)cc2)cc(OC)c1OC	-19%	2%
Cc1cc(C(=O)N/N=C/c2ccc(N3CCOCC3)cc2)c(C)o1	-28%	7%
O=C(O)c1ccc(Nc2cccc(F)c2)c([N+](=O)[O-])c1	-1%	.
O=C(NCc1ccccn1)c1c(Cl)cccc1Cl	-8%	3%

New compounds follow.
smiles	DT40 TDP1 no CPT	TDP1 inh
CCOC(=O)c1ccc(NNC(=O)CC)c([N+](=O)[O-])c1	-12%	-4%
O=C(NCC1CCCO1)C1CC1(c1ccccc1)c1ccccc1 (stereo not given)	?	4%
O=C(COC(=O)CSc1ccc2ccccc2c1)Nc1ccccc1OC(F)F	-4%	-2%
CS(=O)(=O)N1CCCC(C(=O)Nc2ccc3c(c2)OCCO3)C1 (stereo not given)	7%	3%
Cc1cc(S(=O)(=O)N2CCOCC2)ccc1OCC(=O)NCCCn1ccnc1	-1%	0%
COc1ccc(-c2c(C)n([O-])c3c([n+]2=O)CCC3)cc1OC	-2%	7%
COc1cccc(CNC(=O)c2ccncc2)c1	-4%	2%
COc1ccc(OC)c(-n2c(CN3CCC(C(N)=O)CC3)nc3ccccc3c2=O)c1	-5%	-1%

Next part.
smiles	DT40 TDP1 no CPT	TDP1 inh
Cc1ccc(CSCCNC(=O)c2ccccc2)cc1	-36%	8%
CCSc1nnc(-c2ccc(S(=O)(=O)N3CCCC3)cc2)n1C	0%	3%
CCOC(=O)C1CCN(C(=O)CN2C(=O)CSc3ccc(S(=O)(=O)N4CCOCC4)cc32)CC1	13%	5%
Cc1cc(C(=O)O)sc1C	-4%	3%
N#Cc1c(-c2ccc(F)cc2)nc(-c2ccccc2)[nH]c1=O	?	-4%
Cc1ccccc1OCCSc1nnc(C)n1-c1ccccc1	?	6%
Cc1ccc(S(=O)(=O)Cc2ccc(C(=O)N3CCC(C)CC3)cc2)cc1	?	1%
COCCNC(=O)c1ccc(Cn2c(SCC(=O)NC(C)C)nc3ccccc3c2=O)cc1	-17%	8%

Continuation.
smiles	DT40 TDP1 no CPT	TDP1 inh
CCc1nc2ccc(C(=O)NCc3ccccc3C)cc2nc1CC	?	-3%
O=C(Nc1ccc(Cl)c(S(=O)(=O)N2CCOCC2)c1)c1ccncc1	-31%	0%
COc1ccc(-c2c(NC(=O)c3ccco3)n(-c3ccccc3)nc(C)c2=O)cc1	-2%	.
CC(=O)Nc1ccc(C)c(NC(=S)Nc2ccc(F)cc2)c1	-12%	9%
CCc1cc2c(NC3CCCC3)ncnc2s1	4.6µM*	0%
CC(=O)C(Cc1ccc(Cl)nc1)Cc1ccc(Cl)nc1	-20%	5%
COc1ccccc1/C=C/C=NC1C(=O)N(c2ccccc2)[N+](C)=C1C (stereo not given)	-13%	4%
Cc1nc2ncnn2c(C)c1Cc1ccc(Cl)cc1F	-2%	4%

New compounds follow.
smiles	DT40 TDP1 no CPT	TDP1 inh
COC(=O)CS(=O)(=O)c1cc(Br)cc2c1N(C(C)=O)CC2	-9%	-3%
O=S1(=O)CC(O)C(Nc2ccccc2Cl)C1 (stereo not given)	4%	8%
CCOC(=O)CSc1nc(C)c(C(=O)OCC)s1	-4%	7%
Cc1cn(C2CC3OCC3O2)c(=O)[nH]c1=O (stereo not given)	-7%	2%
O=C(Oc1ccc2c(c1)CCC2)N1CCOCC1	-7%	1%
CCC(C)(C)NC(=O)C(c1ccccc1F)N(C(=O)c1ccn[nH]1)c1ccccc1 (stereo not given)	?	-2%
CCCCn1nnnc1SCC(=O)Nc1ccc2c(c1)OCCO2	-4%	7%
CC(=O)n1nc(-c2ccco2)nc1N	-9%	4%

(further entries)
smiles	DT40 TDP1 no CPT	TDP1 inh
CC1(C)CC(=O)C(C=NCCN2CCN(C(=S)Nc3cccc(Cl)c3)CC2)=C(O)C1	-15%	6%
Cc1ccc(C(=O)N/C(=C/C=C/c2ccccc2)C(=O)NCc2ccco2)cc1	-29%	6%
O=C(CN1C(=O)NC2(CCCCC2)C1=O)NCC(=O)Nc1ccc(F)c(F)c1	-7%	-3%
CCC(CC)c1nc(C(N)=O)c2[nH]c(=O)n(-c3ccc(OC)c(OC)c3)c2n1	11%	1%
O=C(COC(=O)c1ccco1)NC(c1ccccc1)c1ccccc1	?	2%
COc1ccccc1CSc1ncc(-c2ccc([N+](=O)[O-])cc2)[nH]1	?	11%
CCCOc1c(OC)cc(Cl)cc1C1NC(=O)NC(C)=C1C(=O)NCc1ccccc1 (stereo not given)	4%	2%
O=C(c1ccc(OCC2CCCO2)cc1)N1CCN(c2ccccc2)CC1 (stereo not given)	-17%	5%

Other records
smiles	DT40 TDP1 no CPT	TDP1 inh
CCOc1ccc(C(=O)Nc2ccc(S(=O)(=O)N3CCN(C)CC3)cc2)cc1	-13%	6%
O=C(CO/N=C/c1ccc(OC(F)F)cc1)NCc1ccc(F)cc1	?	8%
C/C(=N/N1CCN(Cc2ccccc2)CC1)c1ccc(Br)cc1	-15%	.
C[C@H](CO)N1C[C@H](C)[C@@H](CN(C)S(=O)(=O)c2cccs2)Oc2c(NC(=O)Cc3ccccc3)cccc2C1=O	-15%	2%
O=C(Nc1ccccc1Oc1ccccc1)c1ccccc1F	-13%	.
C/C(=N\NC(=O)c1cccnc1)c1cc2ccccc2o1	-27%	1%
Cc1nn(-c2ccccc2)c(Cl)c1/C=N/NC(=O)c1cccnc1	?	3%
Cn1c(C(C(=O)NCC2CCCO2)N(CCc2ccccc2)C(=O)Cn2nnc3ccccc32)nc2ccccc21 (stereo not given)	?	8%

(more compounds)
smiles	DT40 TDP1 no CPT	TDP1 inh
CC1(C)CC(=O)C(C=NCCc2ccc(S(N)(=O)=O)cc2)=C(O)C1	1%	7%
CCN(CC)C(=O)/C(NC(=O)c1ccccc1)=C(/Sc1ncccn1)c1ccccc1	-13%	6%
O=C(CCS(=O)(=O)c1ccc(Br)cc1)Nc1ccccn1	-23%	4%
Cn1nc(C(=O)NNC(=O)CCOc2ccc(C(C)(C)C)cc2)c2ccccc2c1=O	?	1%[56.1 µM]
COc1cc(C(=O)COC(=O)Cc2cnc3sccn23)cc(OC)c1OC	-22%	6%
C/C(=N\O)c1ccc2c(c1)CC(C)O2 (stereo not given)	-8%	0%
Cc1ccc(-c2n[nH]c(=O)c3ccccc23)cc1S(=O)(=O)NCCO	-22%	6%
COc1ccccc1C1=NOC(C(=O)N2CCN(C(=O)c3ccco3)CC2)C1 (stereo not given)	10%	0%

Full records, looked up by structure:
`O=C(CCS(=O)(=O)c1ccc(Br)cc1)Nc1ccccn1` in the list: DT40 TDP1 no CPT = -23%; TDP1 inh = 4%
`COc1ccccc1C1=NOC(C(=O)N2CCN(C(=O)c3ccco3)CC2)C1` (stereo not given) in the list: DT40 TDP1 no CPT = 10%; TDP1 inh = 0%

Following part
smiles	DT40 TDP1 no CPT	TDP1 inh
CCCCn1c(SCC(=O)/C(C#N)=C(\C)N)nc2ccccc2c1=O	?	3%
CCc1nnc(NC(=O)NCN2C(=O)C3C4C=CC(C4)C3C2=O)s1 (stereo not given)	4%	-1%
CCOc1ccc(C(=O)NCC(=O)N2CCC3(CC2)NCCc2[nH]cnc23)cc1	4%	2%
Cc1ccc([N+](=O)[O-])cc1NC(=O)CSc1nncc2ccccc12	?	3%
Cc1cc([N+](=O)[O-])cnc1N1CCOCC1	-5%	5%
OC(COCc1ccco1)CN1CCN(c2ccccc2)CC1 (stereo not given)	-3%	-3%
O=C(OCc1cc(=O)n2cc(Br)ccc2n1)C1COc2ccccc2O1 (stereo not given)	-10%	2%
O=C(O)CC(NNC(=O)c1ccccc1)C(=O)Nc1ccc([N+](=O)[O-])cc1 (stereo not given)	3%	5%

New compounds follow:
smiles	DT40 TDP1 no CPT	TDP1 inh
O=C(N=C1c2ccccc2CN1c1ccc(F)cc1)c1ccc(Cl)nc1	-7%	-4%
OCCN1CCN(C(=S)NC2CCCC2)CC1	4%	3%
COc1ccccc1N1CCN(C(c2ccccn2)c2nnnn2C2CCCCC2)CC1 (stereo not given)	?	2%
CCOc1ccc(C(C)=O)cc1CN1c2ccc(S(N)(=O)=O)cc2CC1C (stereo not given)	?	2%
CC(=O)N1c2ccc(S(=O)(=O)NCCC(=O)NCc3ccc(F)cc3)cc2CC1C (stereo not given)	?	1%
Cc1ccc(NC(=O)COC(=O)Cn2cnc3ccccc32)c([N+](=O)[O-])c1	?	2%
N=C1C(=O)OCC1c1cc(Cl)ccc1NC(=O)Nc1ccccc1 (stereo not given)	-1%	-4%[56.1 µM]
CN(C)C(=O)c1ccc(NC(=O)CN2CCc3cc4c(cc3C2)OCCCO4)cc1	13%	6%

Next results follow.
smiles	DT40 TDP1 no CPT	TDP1 inh
CCCOc1ccc(C2c3c(oc4ccccc4c3=O)C(=O)N2CCN(CC)CC)cc1OC (stereo not given)	-20%	7%
Nc1nc(SCc2ccc(Cl)cc2Cl)n[nH]1	-20%	5%
CCOc1ccc(N(CC(=O)Nc2cc(C)ccc2C)S(=O)(=O)c2c(C)[nH]c(=O)[nH]c2=O)cc1	1%&-6%	8%
C/C(=N/NC(=O)c1nnn(-c2nonc2N)c1COc1ccccc1)c1ccccc1Cl	-5%	4%
COc1ccccc1NC(=O)c1ccc(NC(=O)COC(=O)CC(NC(=O)c2ccccc2Cl)c2ccccc2)cc1 (stereo not given)	?	5%
CC(C(=O)NC1CCCC1)N(C(=O)CS(=O)CC(=O)Nc1ccc(F)cc1)c1ccc2c(c1)OCCO2 (stereo not given)	-18%	5%
CCCS(=O)(=O)c1nc(S(=O)(=O)c2ccc(C)cc2)c(NCc2ccc3c(c2)OCO3)s1	?	3%
CCOc1ccc(CC(=O)OCn2nnc3ccccc3c2=O)cc1	-8%	-1%

The list continues.
smiles	DT40 TDP1 no CPT	TDP1 inh
CCC(=O)NC(=S)Nc1ccc(N2CCOCC2)cc1	-16%	-2%
Cc1cc2oc(C(=O)NC3CCS(=O)(=O)C3)cc(=O)c2cc1C (stereo not given)	11%	2%
Cc1ccc(-c2nnn(CCC(=O)N3CCCCC3C)n2)cc1 (stereo not given)	?	4%
Cc1cc(N/C=C2\CCCCC2=O)no1	-12%	0%
CCCN1CCN(CCCNC(=O)c2cc3c(=O)oc4ccc(C)cc4c3s2)CC1	15%	4%
C1CCN=C(Nc2nn[nH]n2)CC1	14%	-5%
C=CCNC(=O)CN1c2cccc3cccc(c23)S1(=O)=O	-4%	.
Cc1ccc(S(=O)(=O)NCc2ccccc2)cc1	?	11%[56.1 µM]

Further entries.
smiles	DT40 TDP1 no CPT	TDP1 inh
CCN(CC)CCCNC(=O)Cn1ccc2ccccc2c1=O	0%	-1%
O=C(N/N=C/c1c(O)n(-c2ccc(Cl)cn2)c(=O)c2ccccc12)c1ccncc1	-11%	-3%
O=C(OCCN1C(=O)c2ccccc2C1=O)Oc1ccccc1	4%	0%
c1ccc(OCCSc2nnc3sc4ccccc4n23)cc1	-29%	-3%
O=C(NCCN1CCOCC1)c1cc(-c2ccccc2Cl)on1	-7%	.
Cn1c(=O)[nH]c(=O)c2c1nc(CN1CCOCC1)n2Cc1ccccc1	-2%	-5%
COc1ccccc1NC(=O)C1=C(C)NC(=O)NC1c1ccc(C)s1 (stereo not given)	-14%	5%
CCCCn1c(SCC(=O)N2CCC(C)CC2)nc2cc(S(N)(=O)=O)ccc21	-9%	-7%

The results go on:
smiles	DT40 TDP1 no CPT	TDP1 inh
COc1cc(C(=O)OCc2ccc([N+](=O)[O-])cc2)cc(OC)c1OC	-7%	-1%
CCCN(Cc1nnc(-c2ccccc2Cl)o1)C(=O)c1cc(S(=O)(=O)N2CCOCC2)ccc1F	?	0%
O=C(NC1CC1)C(Cl)c1ccccc1 (stereo not given)	-20%	0%
Cc1ccc(C)c(N(Cc2ccccc2F)S(C)(=O)=O)c1	-26%	2%[56.1 µM]
CC(C)CCn1nnnc1CN1CCN(c2ccc(F)cc2)CC1	?	-3%
Cc1ccc(C(=O)N/C(=C/C=C\c2ccccc2)C(=O)NCc2ccco2)cc1	?	1%
c1ccc(C2CCC(N3CCNCC3)CC2)cc1 (stereo not given)	-10%	-5%
N#C/C(=C/Nc1ccccc1C(=O)O)C(N)=O	-1%	0%

(more compounds)
smiles	DT40 TDP1 no CPT	TDP1 inh
COC(=O)CN(c1ccc2c(c1)OCCO2)S(=O)(=O)c1ccccc1	-25%	2%
Cc1ccc(NC(=O)CS(=O)CC(=O)N2CCN(C3CCCC3)CC2)cc1 (stereo not given)	4%	.
COc1ccc(CC(=O)OCC(=O)c2ccc(OC)c(OC)c2)cc1	-3%	0%[56.1 µM]
O=C(NC1CCCC1)C1CCC(=O)N1C1CCCCC1 (stereo not given)	1%	0%
COc1ccccc1-n1c(C)nnc1SCC(=O)Nc1cccc(C(C)=O)c1	-10%	3%
O=C(CCc1ccccc1)N1CCN(S(=O)(=O)c2cccs2)CC1	-18%	3%
O=C(NC12CC3CC(CC(C3)C1)C2)N1CCC(n2nnc3ccccc32)CC1	-29%	2%
COc1ccccc1CN1COc2ccc3c(C)cc(=O)oc3c2C1	.	3%

Source: PubChem BioAssay (National Center for Advancing Translational Sciences (NCATS))
